# Screening results as filed in PubChem.
# Menin MLL FP FL: inhibitors of human menin-MLL interaction, wild-type MLL peptide; Fluorescence polarization, fluorescein-MLL peptide displacement from menin; FP activity change, % at 61.4 µM; 290,000 tested, under 10 active; AID 1766; inconclusive = falling polarisation curve, or a change in total fluorescence; inactive = total fluorescence flat and polarisation flat or rising; no compound was filed as active; the % refers to the polarisation; negative = inhibition;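 also: % of control where 0% means no effect; inhibitors lower the polarisation; unlabelled MLL peptide was the positive control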
# Sfp inh: blocks B. subtilis Sfp PPTase activity; Biochemical Sfp PPTase activity, qHTS; 310,000 tested, 3.5% active; Q9F4F7; AID 1490; Potency, µM, for the others: max response, negative = inhibition, hits mostly inhibitors; active = well fitted inhibition curve with a large enough effect; inconclusive = small, poorly fitted or top-dose-only effect, or another doubt; inactive = no such curve, though single readings can be large or run the other way;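 also: the enzyme is Sfp with the accession as filed and its product quenches rhodamine fluorescence; potency is read from the fitted curve at half-maximal effect; 0% = enzyme reaction without inhibitor and -100% = no enzyme wells; top concentration of the series not given in the record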
#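 Step 1, compound plus 15 nM Sfp-PPTase, 15 min, room temperature. Step 2, add rhodamine-CoA (5 uM) and BHQ-2-YbbR (12.5 uM). Step 3, read 525/598 nm fluorescence at 0 and 30 min.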
# gsp antag: antagonizes gsp, the McCune-Albright syndrome mutation; gsp-mutant cells, cAMP HTRF, 30 min; control for the full effect not named in the record; Potency, µM (titrated, usually from 76.9 µM), for the others: at the top dose activity change, negative = inhibition, most hits filed as inhibitors; 340,000 tested, 0.4% active; active = falling curve of any shape with a large fitted effect; inconclusive = falling curve, mostly with a smaller effect; inactive = flat or rising curve; cell line not stated here;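 also: intracellular cAMP measured with PDE inhibitor Ro 20-1724 present during compound exposure; potency is read from the fitted curve at half-maximal effect; % is scaled to controls: 0 for no effect and ±100 for the full control effect; nearly all actives have a fitted effect of over 65% in size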
#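 Cells, 2000/well, grown 16–24 h in DMEM 10% FBS with 0.5 mg/ml G418, then compounds plus […] (300 uM addition stock), 30 min at 37C. cAMP read by HTRF (cAMP-d2 and anti-cAMP antibody-K in lysis buffer) after 30 min RT.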
# ClpP mod: qHTS Assay for Activators of ClpP. ATP-dependent Clp protease proteolytic subunit (Bacillus subtilis (strain 168)), P80244. purified B. subtilis ClpP, FRET peptide cleavage, 20 min. Potency, µM (highest dose often 57.5 µM), inactives show top-dose activity change, negative = active. 340,000 tested, 1.9% active. AID 651965, 2013; active = well fitted falling curve with a large enough effect; inconclusive = small, poorly fitted or top-dose-only effect; inactive = no such curve, though single readings can be large or run the other way; also: potency is read from the fitted curve at half-maximal effect; the source files actives as falling curves though it sought activators and does not explain the sign; nearly all actives have a fitted effect of over 65% in size; many hits overshoot -100%
# Target sequence (P80244 whole entry, looked up): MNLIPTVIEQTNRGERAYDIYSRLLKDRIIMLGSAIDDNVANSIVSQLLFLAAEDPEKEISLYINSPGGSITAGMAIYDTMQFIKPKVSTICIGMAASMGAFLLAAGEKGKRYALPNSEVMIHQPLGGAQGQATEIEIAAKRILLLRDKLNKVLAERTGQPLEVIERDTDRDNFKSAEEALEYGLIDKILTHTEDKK
#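 FRET quenching reversal measured ClpP activation: 10 microg/mL B. subtilis ClpP at pH 8 with the FRET-FV decapeptide, read at 430 nm after 320 nm excitation. The 20-min minus 0-min signal was scaled between DMSO/no-enzyme wells and ADEP (5.8 microM final).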
# gsp agonist: activates gsp, the McCune-Albright syndrome mutation | gsp mutant cells, cAMP HTRF, 30 min; control for the full effect not named in the record | Potency, µM (titrated, usually from 76.9 µM), inactives show top-dose activation (cAMP increase), hits mostly activators | 340,000 tested, 0.13% active; active = well fitted activation curve with a large enough effect; inconclusive = small, poorly fitted or top-dose-only effect, or another doubt; inactive = no such curve, though single readings can be large or run the other way; cell line not stated here;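 also: phosphodiesterase inhibitor Ro 20-1724 added with compounds to block cAMP breakdown; potency is read from the fitted curve at half-maximal effect; nearly all actives have a fitted effect of over 60% in size; about a fifth of the inactives were tested at one dose only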
#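 Cells in DMEM/10% FBS with G418 were pretreated with compounds in DMSO plus […] (300 uM stock) for 30 min at 37C. cAMP was measured by HTRF (cAMP-d2 plus anti-cAMP antibody-K) after 30 min at room temperature.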
# TRPV1 potentiator: enhances activation of the human vanilloid receptor TRPV1; Q8NER1; 320,000 tested, 0.02% active; TRPV1-expressing cells, Fluo-8 calcium influx, capsaicin EC20 potentiation; host cell line not named in the record; control for the full effect not named in the record; potentiation, % at 8.33 µM; active means potentiation above 80%; inconclusive means 30% to 80%; inactive means below 30%; also: 0% is about no effect
#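 Fluo-8 calcium influx in TRPV1-expressing cells, kinetic read (ex 480/em 520 nm). Compound added and read 3 min for agonist activity, followed by capsaicin at EC20 final and 2 min further read for enhancement.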
# TRPML1 blocker: human mucolipin-1 channel inhibition; Q9GZU1; TRPML1-inducible cells, Ca2+ dye fluorescence, FDSS; stronger effect = lower value; inhibition of EC80 agonist-evoked calcium signal; activity change, negative = inhibition, % (concentration not given with the values); 390,000 tested, 0.02% active; AID 624415; in the data active means activity change below about -50%; inconclusive means about -30% to -50%; inactive means above about -30%;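 also: stimulus is agonist 54-4 at its EC80 concentration; % is scaled to controls: 0 for no effect and ±100 for the full control effect; compound concentration not given in the record; the text of the record puts the active cut at -80%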
# Target sequence (Q9GZU1 whole entry, looked up): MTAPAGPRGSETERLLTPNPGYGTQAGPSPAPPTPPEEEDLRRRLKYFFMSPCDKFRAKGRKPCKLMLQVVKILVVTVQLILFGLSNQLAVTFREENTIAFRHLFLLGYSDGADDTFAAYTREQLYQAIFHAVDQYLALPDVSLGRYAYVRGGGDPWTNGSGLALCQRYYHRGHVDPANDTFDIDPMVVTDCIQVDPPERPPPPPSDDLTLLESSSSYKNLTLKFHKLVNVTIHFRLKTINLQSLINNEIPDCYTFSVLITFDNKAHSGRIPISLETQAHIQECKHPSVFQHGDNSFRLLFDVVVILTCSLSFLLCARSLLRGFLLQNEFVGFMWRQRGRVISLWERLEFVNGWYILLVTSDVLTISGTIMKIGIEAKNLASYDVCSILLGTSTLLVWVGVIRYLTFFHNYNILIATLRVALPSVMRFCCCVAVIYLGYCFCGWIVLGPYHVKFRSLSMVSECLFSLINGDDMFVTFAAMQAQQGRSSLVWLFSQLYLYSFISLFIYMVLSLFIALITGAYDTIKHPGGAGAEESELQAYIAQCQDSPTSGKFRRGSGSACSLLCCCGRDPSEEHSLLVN
#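 TRPML1-DL cells, Tet-induced overnight (~16 h, 37 °C) at 1,500 cells/well, were loaded with Ca8 no-wash dye plus quencher for 45-90 min at room temperature. Compounds were pinned during FDSS kinetic reading; agonist 54-4 at EC80 (4 uM final) then added.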
# Starred values were filed as active, the others as inactive; ? = inconclusive; / = not tested or not shown; & = joins results of further samples; ! = not active in a repeat; [ ] = another dose, or the depositor's remark.
SMILES,Menin MLL FP FL,Sfp inh,gsp antag,ClpP mod,gsp agonist,TRPV1 potentiator,TRPML1 blocker
O=C(Cn1ccc2ccccc2c1=O)NCC(=O)N1CCN(c2ccccc2F)CC1,-4.5,22%,8%,/,6%,14,-7
CC(=O)NC(CC(C)C)C(=O)NC(Cc1ccccc1)C(=O)CCl (stereo not given),/,/,4%,0.9%,6%,/,21
CC(=O)N1CCCc2cc(S(=O)(=O)N3CCCC(C(=O)NCc4ccccc4Cl)C3)ccc21 (stereo not given),-0.9,3%,-26%,0.1%&1.8%,2%,2,0&-6
CCn1c(=O)n(CCOC)c(=O)c2c3c(sc21)CCCC3,-1.6,-2%,-9%,0.7%,-31%[inhibitor],-2,8
Cc1cccc(CC2CC(=O)N(c3ncccn3)C2=O)c1 (stereo not given),2.6,11%,7%,-2.1%,9%,0,-1
COc1ccccc1C(=O)NCC(=O)OCCCOC(=O)CNC(=O)c1ccccc1OC,/,17%,-13%,-4.2%,-4%,2,24
O=C(N/N=C/c1ccc[nH]1)c1ccc(Cl)cc1,-0.3,-4%,6%,?,12%,-15,-16
COc1ccc(N2C(=O)N[C@@H](Cc3ccccc3)C2=O)cc1OC,-2.7,12%,5%,1.0%,?,2,-7
CCN(CC(=O)NCc1cccs1)S(=O)(=O)c1ccccc1Cl,/,/,0%,-0.3%,-1%[15.4 µM],-12,7
O=C(/C=C/c1ccc(Cl)cc1)OCC(=O)c1ccc[nH]1,/,/,5%,-1.0%,-21%,19,-4
CC1(C)CC(NS(=O)(=O)c2ccc3ccccc3c2)CC(C)(C)N1,-0.2,16%,7%,/,-7%[15.4 µM],5,5
CCC(C)n1c(SCC(=O)NC2CCS(=O)(=O)C2)nc2ccccc2c1=O (stereo not given),/,/,13%,2.2%,6%,-8,29
COC(=O)C1=C(C)N(CCc2c[nH]c3ccccc23)C(=O)C1,?,-13%,9%,0.4%,-4%[15.4 µM],8,8
COCC(=O)N1CCCc2ccccc21,0.9,9%,10%,1.4%,10%,14,-15
Cn1nc(C(=O)NNC(=O)c2ccccc2Br)c2ccccc2c1=O,/,/,3%,-12%,-26%,1,1
C=CCOc1cccc(C(=O)N2CCC(CCC(=O)NC3CC3)CC2)c1,-0.7,15%,2%,-2.2%,0%,-10,-28
Cc1[nH]n(-c2ncc(-c3ccc(Cl)cc3)s2)c(=O)c1C(c1ccc(Cl)cc1)C(C#N)C#N (stereo not given),6.2,?,-7%,-1.9%,-6%[15.4 µM],2,5
CCCC(=O)Nc1ccc(NC(=O)c2ccco2)cn1,-2.3,9%,-6%,-1.1%,-7%,5,20
COc1cccc(/C(O)=C2/C(=O)C(=O)N(CCN3CCOCC3)C2c2cccnc2)c1 (stereo not given),-2.9,-3%,19%,-2.9%,22%,-12,17
CCOc1ccc(C2CC(c3ccc(OC)cc3)n3ncnc3N2)cc1 (stereo not given),8.5,1%,-9%,-4.9%,-11%,15,15

# An excerpt from above in order of their number in gsp agonist, smallest number first:
molecule,gsp agonist
CCCC(=O)Nc1ccc(NC(=O)c2ccco2)cn1,-7%
C=CCOc1cccc(C(=O)N2CCC(CCC(=O)NC3CC3)CC2)c1,0%
CCC(C)n1c(SCC(=O)NC2CCS(=O)(=O)C2)nc2ccccc2c1=O (stereo not given),6%

# Next results.
SMILES,Menin MLL FP FL,Sfp inh,gsp antag,ClpP mod,gsp agonist,TRPV1 potentiator,TRPML1 blocker
O=C1CSC(c2cn(-c3ccccc3)nc2-c2cc3ccccc3o2)N1Cc1ccccc1 (stereo not given),1.2,11%,-13%,0.7%,12%[15.4 µM],14,11
O=C(N1CCOCC1)N1CCN(S(=O)(=O)N2CCOCC2)CC1,0.1,9%,4%,-3.7%,15%,-3,3
COc1cccc(/C=C/C(=C2/C(=O)N(c3ccccc3)N=C2C)c2ccccc2)c1OC,-3.6,3%,8%,1.6%,2%,10,36
CCCCN(C(=O)c1ccncc1)c1c(N)n(CCC)c(=O)[nH]c1=O,/,/,8%,-3.4%,-2%[15.4 µM],/,-18
C#CCOC(=O)C[N+](C)(C)C/C=C/c1ccccc1,2.4,4%,/,/,2%[15.4 µM],4,-15
CSc1nc(C)nc2c1c(=O)n(C)c(=O)n2C,2.4,-7%,8%,-2.0%,22%,-8,2
Cc1nc(N=Nc2cc(S(=O)(=O)O)c3cc([N+](=O)[O-])cc(S(=O)(=O)O)c3c2)c(COP(=O)(O)O)c(C=O)c1O,3.2&63,40µM*!,/,-1.0%,/,/,/
COc1ccccc1OCCNC(=O)c1cccc(S(=O)(=O)N2CCN(Cc3ccccc3)CC2)c1,/,/,-25%,6.6%,5%,2,2
CCOc1ccc(NC(=O)CN2CCN(S(=O)(=O)c3ccc(Cl)cc3)CC2)cc1,1.5,8%,0%,1.1%,-14%,/,7
CCOc1cc(C(=O)NCc2ccc3c(c2)OCO3)cc(OCC)c1OCC,-6.4,15%,-4%,/,-1%,-4,-10
O=C1N/C(=N/NC(=O)c2cccc3ccccc23)S/C1=C\c1ccccc1OCc1ccccc1,8.2,-4%,28µM*,0.8%,?,2,3
O=C1c2cccc3cccc(c23)C(=O)N1CCN1CCN(CC(O)COc2ccccc2)CC1 (stereo not given),0.2,13%,1%,-1.5%,8%,9,1
CCOC(=O)c1[nH]cnc1C(=O)O,2.7,-6%,2%,-1.9%,-39%[inhibitor],-1,10
CC1CN(S(=O)(=O)c2cccc(C(=O)OCc3cc(=O)oc4cc(O)ccc34)c2)CC(C)O1 (stereo not given),7.1,-13%,?,12%,-51%[inhibitor],-30,-9
COCCNC(=O)c1cn(C)c(=O)c2cc(OC)c(OC)cc12,2.2,13%,5%,?,2%,-7,-2
Cc1ccc(Cc2c(-c3ccc(Cl)cc3)nc3ccc(Br)cn23)cc1,/,/,/,-8.1%,?,/,11
CCOc1ccc(CCNC(=O)CCNC(=O)c2ccccc2Cl)cc1OCC,/,-4%,-7%,-2.0%,-79%[inhibitor],9,9
CC(=O)NC12CC3CC(C1)CC(C(=O)Nc1nc4ccc(F)cc4s1)(C3)C2,/,-14%,?,0.0%,?,-3,46
Cc1ccc2c(c1)N(C(=O)CCC(=O)NC1CCCCCC1)CCO2,-0.2,-4%,-4%,-1.1%,-73%[inhibitor],5,-10
CC1(C)CC(=O)C=C(c2cccc(Cl)c2O)C1,/,/,-4%,-0.1%,?,-10,21
N#Cc1c(-c2ccccc2)nc(SCc2cccc(Cl)c2)[nH]c1=O,-16,1%,-4%,-2.2%,25%[15.4 µM],-1,34
O=C(c1ccccc1)C(CCc1ccccn1)CCc1ccccn1,/,/,-7%,3.5µM*,-2%[15.4 µM],/,10
CC(C)(C)c1cc(C(=S)N2CCCC2)cc(C(C)(C)C)c1O,7.9,40µM*,-20%,-2.0%,-23%,-9,27
CC(C)n1c2ccccc2c2nc3ccccc3nc21,1.2,-16%,11%,5.4%,4%,-19,19
CCN1C(=O)C(NC(C)=O)c2cc(OC)ccc21 (stereo not given),4.4,-17%,0%,-1.6%,-12%,6,0
CCOc1cc(CN2CCC(CO)(Cc3cccc(C(F)(F)F)c3)CC2)ccc1OC,2.5,5%,9%,/,?,8,7
Cc1ccc(-n2nc(C)c3onc(C)c3c2=O)cc1,2.1,16%,-6%,1.4%,2%,5,25
CC1CCCN(C(=O)COc2ccc(-c3ccccc3)cc2)C1 (stereo not given),-0.8,8%,-22%,/,-27%,-10,-11
O=[N+]([O-])c1ccc(N2CCN(c3ccc(O)cc3)CC2)cn1,0.0,56µM*,-22%,-1.8%,13%[15.4 µM],-10,7
Cn1c(=O)c2ccccc2n(CC(=O)NC2CCCC2)c1=O,3.5,-6%,3%,/,?,2,7
CCOC(=O)c1cnc2ccc(Br)cc2c1NCCO,4.5,2%,2%,0.3%,30%,-40,-2
O=C(Nc1ccc2c(c1)OCO2)c1cc(-c2ccccc2Cl)on1,0.1,-14%,-10%,/,-26%,-15,4
COc1cc2c(cc1OC)C(c1ccccc1)N(C(=O)c1ccccc1)CC2 (stereo not given),1.2,5%,-8%,-0.3%,4%,2,9
O=C(O)c1ccc(Nc2cnc3ccccc3n2)cc1,-6.6,7%,-9%,0.2%,-16%,-2,-9
O=C(Cc1ccccc1[N+](=O)[O-])NCC(O)c1ccc2c(c1)OCO2 (stereo not given),/,/,6%,-2.3%,-12%,/,-20
O=C(/C=C/c1ccco1)Nc1cccc2cccnc12,?,-15%,5%,/,0%[15.4 µM],10,-19
COc1ccc(-c2csc3nc(C)n(-n4cccc4)c(=O)c23)cc1OC,3.6,10%,-1%,-0.3%,?,-1,7
CCN(CC1CCCN(CCc2cccc(F)c2)C1)C(=O)c1ccc(CSC)o1 (stereo not given),8.6,7%,-20%,-2.6%,-6%,2,-4
Cn1cc(C(=O)N2CCN(c3ccccc3)CC2)c(=O)c2cc(S(=O)(=O)N3CCOCC3)ccc21,/,0%,9%,-0.9%,?,?,-5
CCOc1ccc2nc(NCCCNS(=O)(=O)c3ccc(C)cc3)c(C#N)cc2c1,-16,4%,17%,-1.7%,29%,5,11
Cc1cc(N2O[C@]34C=C[C@]25C[C@@H](O)CC[C@]5(C)C3CC[C@]2(C)[C@@H]([C@H](C)/C=C/[C@H](C)C(C)C)CC[C@H]24)no1 (stereo not given in full),/,/,3%,3.4%,/,/,25
COC(=O)Cc1ccc(NC(=S)NCC(C)C)cc1,5.1,-2%,-3%,-1.1%,?,3,8
CCCCC(c1nnnn1CC1CCCO1)N1CCN(Cc2ccccc2)CC1 (stereo not given),0.8,9%,8%,0.8%,-24%,4,3
CC1(C)CC(=O)C2=C(C1)NC(SCC(N)=O)=C(C#N)C21CCCCC1,1.7,-14%,0%[15.4 µM],-24%,3%,-6,10
